Compound activity as filed in PubChem.
Mtb bLac sens: beta-lactam sensitization of Mtb H37Rv, H37Rv | M. tuberculosis H37Rv growth with meropenem, percent inhibition; hits of this screen are not shown here | inhibition, % at 25 µM | 330,000 tested, 0.27% active | AID 434955, 2010;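 active means about 74% or more and at least 40 points above the plate without the antibiotic, then above 30% in a dose series; inconclusive means first-round hits that could not be retested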;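 further: growth measured after seven days incubation then overnight dye step; 0% = bacteria only wells and 100% = bacteria with antibiotic; twin plates without the antibiotic show which effects depend on it; some results filed as inactive read as strong as hits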
Mtb growth: M. tuberculosis H37Rv growth inhibitors, H37Rv strain (AID 1626). 220,000 tested, 0.95% active. inhibition, % at 10 µM; hits with a dose series show IC50 in µM. M. tuberculosis H37Rv growth inhibition; higher % means a stronger effect;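 active means confirmed in a dose series; inconclusive means inhibition above 80% but not taken into the dose series; inactive means below 80% or under 30% at every dose of the series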;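 further: bacteria incubated seven days before Alamar blue readout; 0% = bacteria only wells and 100% = bacteria with antibiotic wells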
Arbovirus anti: antivirals against arbovirus infection, primary screen, cell-based, full library, 10K replicate subset. inhibition, % at 10 µM. arbovirus infection cell-based antiviral screen. 200,000 tested, 0.37% active;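 active means inhibition from about 30%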;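 further: bluetongue infection of BSR cells; cell survival read as ATP light after 72 h; 0% = infected wells without compound and 100% = uninfected wells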
YopH PTP inh: YopH tyrosine phosphatase inhibitors, primary screen, biochemical, fluorescence Ex485/Em525 | YopH tyrosine phosphatase [Yersinia enterocolitica] | inhibition, %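 (about 10 µM by stock and volumes)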 | 140,000 tested, 0.16% active;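 active means inhibition of 50% or more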;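 further: controls were vehicle for no effect and minimum signal wells for full effect; inactives centre near -20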
RecA intein inh: Mtb RecA intein splicing inhibitors, primary screen, biochemical, fluorescence, HTS | 290,000 tested, 0.75% active | AID 2221, 2009 | Protein RecA (Mycobacterium tuberculosis (strain ATCC 25618 / H37Rv)), P9WHJ3 | cell-free RecA intein splicing | inhibition, %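 (about 9 µM by stock and volumes)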; in the data active means inhibition above about 30%; inconclusive means no clear call, values can overlap the other calls;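 further: 0% = vehicle wells and 100% = reference inhibitor control wells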
Target sequence (P9WHJ3 whole entry, looked up): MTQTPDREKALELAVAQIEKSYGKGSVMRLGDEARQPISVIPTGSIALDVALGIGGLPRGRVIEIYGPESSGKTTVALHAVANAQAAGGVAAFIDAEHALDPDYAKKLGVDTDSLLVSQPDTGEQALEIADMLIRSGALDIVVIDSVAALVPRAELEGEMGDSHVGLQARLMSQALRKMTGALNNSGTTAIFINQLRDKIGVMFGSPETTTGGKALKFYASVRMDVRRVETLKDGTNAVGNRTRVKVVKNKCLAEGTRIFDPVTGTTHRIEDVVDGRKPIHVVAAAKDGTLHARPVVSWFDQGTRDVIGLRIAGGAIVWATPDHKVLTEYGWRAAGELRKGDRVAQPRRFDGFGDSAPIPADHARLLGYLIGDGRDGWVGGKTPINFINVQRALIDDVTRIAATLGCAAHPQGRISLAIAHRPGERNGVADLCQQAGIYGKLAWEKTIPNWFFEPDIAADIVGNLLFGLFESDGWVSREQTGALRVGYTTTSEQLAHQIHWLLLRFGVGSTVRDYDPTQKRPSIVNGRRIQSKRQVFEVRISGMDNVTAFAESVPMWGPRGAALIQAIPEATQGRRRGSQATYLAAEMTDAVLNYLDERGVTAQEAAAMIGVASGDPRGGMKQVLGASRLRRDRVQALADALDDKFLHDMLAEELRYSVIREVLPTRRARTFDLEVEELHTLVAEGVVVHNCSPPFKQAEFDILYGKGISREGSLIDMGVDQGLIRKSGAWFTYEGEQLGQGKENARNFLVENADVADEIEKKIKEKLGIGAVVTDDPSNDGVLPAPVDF
Arbovirus anti repeat: recorded beside Arbovirus anti, whose call it bears; inhibition, %; measured here: 10K subset replicate screen; many hits read low in the repeat;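 first of two repeat runs on a subset; 0% = infected and 100% = uninfected wells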
The depositor's hits bear a star; ? = inconclusive; / = no result given.

SMILES | Mtb bLac sens | Mtb growth | Arbovirus anti | YopH PTP inh | RecA intein inh | others
COc1ccc(NC(=O)C(CC(=O)O)Cc2ccccc2)cc1 (centres undefined) | -6 | -4% | 9 | -18 | 1.1 | Arbovirus anti repeat=-1
Cc1cc2oc(=O)c(CC(=O)O)c(C)c2c2occ(C(C)(C)C)c12 | 9 | / | / | / | -2.9
Cc1ccc(CCNC(=O)C2CCN(S(=O)(=O)c3ccc4c(c3)NC(=O)C(C)S4)CC2)cc1 (centres undefined) | 40 | / | / | / | -3.4
O=C(CSc1ncn[nH]1)c1ccc(OC(F)F)cc1 | -2 | 3% | 17 | / | 1.9
CC[C@H](C)C(C(=O)N1CCN(C(=O)OC(C)(C)C)CC1)n1cc(C(CC(C)C)NC(=O)OC(C)(C)C)nn1 (some centres undefined) | -11 | -3% | -9 | / | -0.2
COc1cccc(C2C(C(N)=O)=C(C)Nc3nc(-c4ccccc4Cl)nn32)c1 (centres undefined) | 0 | 2% | -3 | -35 | 0.4 | Arbovirus anti repeat=-2
Cc1nc(-c2ccccc2)sc1C1(C)CC(c2ccc(C#N)cc2)=NO1 (centres undefined) | -9 | -5% | / | / | -1.6
CN(C)CCOC(=O)c1cccc(Br)c1 | 2 | 3% | 2 | -4 | 2.3
Cc1ccc(S(=O)(=O)N2CCN(CC(=O)N/N=C\c3ccccn3)CC2)cc1 | -7 | 3% | / | / | -0.5
CC(CCc1ccccc1)NC(=O)CSc1nccc(=O)[nH]1 (centres undefined) | -4 | -3% | 1 | -26 | -1.0 | Arbovirus anti repeat=3
CCOc1ccccc1N(C(=O)Nc1cccc(Cl)c1)C1=NC(C)CS1 (centres undefined) | 11 | 2% | 3 | -15 | 2.5
CCOC(=O)c1sc(NC(C)=O)nc1-c1ccccc1 | 11 | 5% | 5 | 15 | -3.6
O=C(CN(C(=O)CNS(=O)(=O)c1ccc(F)cc1)C1CCCC1)NCc1ccco1 | 2 | / | / | / | 1.1
Cc1ccc(CS(=O)(=O)CCC(=O)NCCN(C)Cc2ccccc2)cc1 | -2 | -3% | 6 | -9 | 0.3
Cc1nn(-c2ccccc2)c2c1C(c1ccc([N+](=O)[O-])cc1)N1C(=N2)C(=O)Nc2ccccc21 (centres undefined) | 91 | 19µM* | -6 | -25 | 12
Oc1ccc2ccccc2c1C=Nc1ccc(Cl)cn1 | -1 | -4% | 4 | / | 5.4
CCOC(=O)c1c(C)oc2ccc(OC(=O)COc3c(F)c(F)c(F)c(F)c3F)cc12 | 95 | ? | 6 | -19 | /
CCN(CCCNC(=O)C1CCCN(S(=O)(=O)c2cnc[nH]2)C1)c1ccccc1 (centres undefined) | 1 | -8% | 10 | -10 | 2.5
COc1cc(OC)cc(C(C(=O)NC2CCCCC2)N(C(=O)c2ccno2)c2ccccc2)c1 (centres undefined) | -2 | / | 0 | 4 | 3.5
C=CCOc1ccc(CN(C)C(=O)CNC(=O)c2ccc(-c3ccccc3)cc2)cc1 | 9 | / | / | / | -1.6
CCOC(=O)Nc1ccc2c(c1)N(C(=O)N1CCN(C)CC1)c1ccccc1S2 | 3 | -1% | -11 | -16 | 1.0
COc1cc(-c2nc3ccc4ccccc4c3c3c2CCC3)cc(OC)c1OC | -9 | -5% | -3 | -12 | 1.2
Cc1cc(C(C)(C)C)c(O)c(C(C)(C)C)c1 | 1 | -4% | 3 | / | 3.9
Cc1cc(OC(C)C(=O)NCc2ccccn2)c2c(C)c(Cc3ccccc3)c(=O)oc2c1 (centres undefined) | 3 | / | / | / | 1.0
C/C(=N\NC(=O)c1ccc(Cn2cc([N+](=O)[O-])cn2)o1)c1cccc(NC(=O)c2cccnc2)c1 | -5 | -3% | 2 | -43 | 0.7
COc1ccc(NC(=O)N2CCCc3ccccc32)c(OC)c1 | 30 | / | / | / | 0.7
Cc1cc(-n2c(C)cc(C(=O)CSc3ncnc4ccccc34)c2C)no1 | -1 | -2% | -2 | -1 | -1.6
O=C(CCc1nnc(CCCCc2ccccc2)o1)NCCc1cccnc1 | -2 | 2% | -3 | / | 2.8
COC(=O)CSc1nnc(CNC(=O)c2ccccc2OC)n1-c1ccc(OC)cc1 | -16 | -9% | 4 | -35 | /
CCCCCCC(c1c(C)n(C)n(-c2ccccc2)c1=O)c1c(C)n(C)n(-c2ccccc2)c1=O | 11 | -7% | 6 | -23 | 6.8
COc1cc2c(cc1OC)C(COc1ccc(C(C)C)cc1)NCC2 (centres undefined) | -1 | / | / | / | 0.2
CCOC(=O)c1ccc(-n2c(CN3CCN(CCO)CC3)nc3ccc([N+](=O)[O-])cc3c2=O)cc1 | 4 | 68% | 10 | / | 0.4
O=C(Oc1cccc(O)c1)C1CCCCC1 | -7 | 5% | 14 | / | -21
O=S(=O)(/N=C(/Nc1ccccn1)c1ccccc1)c1ccc(Cl)cc1 | ? | -7% | 2 | -24 | -0.3
CCOC(=O)C1CCCN(C(=O)CC(c2ccccc2)c2ccccc2)C1 (centres undefined) | 0 | -7% | -2 | -15 | 3.1
Cc1cc(C=O)c(C)n1-c1cccc(C(=O)O)c1 | -2 | -10% | 4 | / | -1.2
CC(=O)NCCc1nc2cc(NS(=O)(=O)c3ccc(Cl)cc3)ccc2n1C | -7 | / | / | / | -3.0
O=C(COC(=O)c1ccc(Br)cc1)NC1CCCC1 | -2 | / | / | / | 1.4
Cc1ccc2[nH]c(=O)c(CN(CCCO)C(C)c3nnnn3Cc3ccco3)cc2c1 (centres undefined) | -3 | 3% | / | / | -2.0
CCc1ccc(NS(=O)(=O)c2ccc(C)c(C(=O)N3CCOCC3)c2)cc1 | 6 | / | / | / | 0.9
O=C(Nc1ccc(NC(=O)c2ccccc2Cl)nc1)c1ccco1 | 5 | / | / | / | 0.5
Cc1ccc(Nc2ncc3c(n2)CC(C)(C)CC3=O)cc1 | -5 | 6% | 0 | / | 2.5
Cc1ccccc1Nc1nnc(-c2ccc(C(=O)NCCO)cc2)c2ccccc12 | 0 | / | / | / | 4.7
Clc1ccccc1CSc1nnc([C@@H]2CCCN2)o1 | -5 | -2% | / | / | 0.0
NC(=O)c1c(NC(=O)c2ccccc2)sc2c1CCN(Cc1ccccc1)C2 | 1 | / | / | / | -9.1
CC(=O)c1c(C)oc2ccc(N(C(C)=O)S(=O)(=O)c3cccc4cccnc34)cc12 | -1 | 3% | / | / | 2.4
Cc1ccc(S(=O)(=O)c2cn(CC(=O)Nc3ccccc3)c3ccc(F)cc3c2=O)cc1 | 2 | / | 3 | -19 | -5.2
Cc1ccc(Cn2c(SCC(=O)NCc3ccco3)nc3ccsc3c2=O)cc1 | -3 | 0% | -2 | -43 | 2.2

Of the compounds above, these have fluorine.
SMILES | Mtb bLac sens | Mtb growth | Arbovirus anti | YopH PTP inh | RecA intein inh | others
O=C(CSc1ncn[nH]1)c1ccc(OC(F)F)cc1 | -2 | 3% | 17 | / | 1.9
O=C(CN(C(=O)CNS(=O)(=O)c1ccc(F)cc1)C1CCCC1)NCc1ccco1 | 2 | / | / | / | 1.1
CCOC(=O)c1c(C)oc2ccc(OC(=O)COc3c(F)c(F)c(F)c(F)c3F)cc12 | 95 | ? | 6 | -19 | /
Cc1ccc(S(=O)(=O)c2cn(CC(=O)Nc3ccccc3)c3ccc(F)cc3c2=O)cc1 | 2 | / | 3 | -19 | -5.2

The results go on:
SMILES | Mtb bLac sens | Mtb growth | Arbovirus anti | YopH PTP inh | RecA intein inh | others
COc1ccc(C(=O)NC(=S)N2CC(C)OC(C)C2)cc1OC (centres undefined) | -3 | 3% | 2 | / | -4.4
CCOC(=O)c1cc(-c2cccc([N+](=O)[O-])c2)on1 | 95 | ? | -1 | / | -3.3
Cc1cccc(-c2c3c(=O)n(C)c(=O)n(C)c3cn2CCO)c1 | -5 | 1% | -1 | -24 | -0.3
COc1ccc(-c2cc3ccccc3oc2=O)cc1NC(=O)c1ccc(Br)o1 | 1 | -2% | 2 | -28 | -2.7
CCS(=O)(=O)Nc1ccc(C2=NN(C(=O)c3ccco3)C(c3cccc(F)c3)C2)cc1 (centres undefined) | 2 | 16% | -9 | / | 7.9
CCOc1ccc(CCNC(=O)C2CCC(=O)N2C2CCCCC2)cc1OCC (centres undefined) | -7 | 7% | 0 | -35 | 0.7
Cc1ccc(S(=O)(=O)Cn2nnnc2CN2CCN(C(=O)c3ccco3)CC2)cc1 | -6 | / | -2 | -33 | -3.0
CC(=O)OC1COC(OC2C(O)C(C)OC(OC3C(OC4CCC5(C)C(CCC6(C)C5CC=C5C7CC(C)(C)CCC7(C(=O)O)CCC56C)C4(C)CO)OCC(O)C3O)C2O)C(O)C1OC(C)=O (centres undefined) | 0 | 2% | -20 | / | /
CCOC(=O)/C(C#N)=C/c1ccc(OCC(=O)Nc2ccccc2)c(OC)c1 | / | 1% | 9 | -26 | -105
COc1ccc(-n2c(SCC(=O)N3CCCCC3)nnc2-c2cccnc2)cc1 | ? | -6% | 7 | -15 | -0.9
COC(=O)c1ccc2c(=O)n(CCCCCC(=O)NCc3ccccn3)c(=O)[nH]c2c1 | ? | -2% | 3 | -38 | -2.6
N#CCN1CCN(CC(=O)Nc2cccc3ccccc23)CC1 | -7 | 44% | 2 | -4 | -0.1
Cc1nn2c(N3CCCC3)c3c(nc2c1-c1ccccc1)CCC3 | 6 | 16% | / | / | 4.4
O=C(O)CSc1nccc2ccccc12 | 11 | -1% | 7 | / | -0.1
COc1ccc(S(=O)(=O)Nc2cc3c(cc2C(C)=O)OCO3)cc1 | 8 | -4% | -23 | / | -1.5
COc1ccc(C(=O)Oc2ccc3oc(=O)sc3c2)cc1 | ? | 4% | -1 | -13 | -3.4
COC(=O)CSc1nc(N2CCOCC2)c2c(c1C#N)CC(C)(C)OC2 | 2 | / | / | / | 0.1
CCOc1cc(/C=C/C(=O)OCC(=O)NCc2ccco2)cc(Cl)c1OC | -1 | / | / | / | -2.4
Cn1c(=O)c2c(ncn2CC(=O)N2CCN(c3cccc(Cl)c3)CC2)n(C)c1=O | -7 | -3% | -3 | -98 | -0.3
CC(Sc1ncnc2c1cnn2-c1ccccc1)C(=O)NCC1CCCO1 (centres undefined) | -5 | / | / | / | 2.5
O=C(O)c1cc2c(ccc3ccccc32)o1 | 9 | -4% | 1 | -39 | -0.9
CC1(C)CC2(CCO1)OC(=O)CC2C(=O)Nc1ccc(Br)cc1 (centres undefined) | 1 | -8% | / | / | 0.7
Cc1cccc(C)c1OC(=O)CSc1nnc(-c2ccccc2)o1 | 97 | 14% | 2 | -13 | -2.3
COc1cccc(/C=N/NC(=O)c2c(C)nc3ccc(Cl)cn23)c1O | 11 | / | / | / | 3.1
CN(C)c1cccc(C(=O)OCC(=O)N2CCc3ccccc3C2)c1 | 5 | 4% | -9 | / | 1.8
C/C(=C1/SC(N2CC(C)OC(C)C2)=NC1=O)c1ccccc1 (centres undefined) | 2 | 2% | 5 | -6 | 0.5
O=C(COc1ccc([N+](=O)[O-])cc1)Nc1nc(-c2ccccn2)cs1 | 91 | / | / | / | -2.4
O=C(O)c1ccc2c(c1)C(=O)/C(=C\c1ccco1)C2=O | -2 | 5% | 0 | / | -0.5
CS(=O)(=O)c1ccc(C(=O)NC(Cc2ccccc2)c2ccccc2)cc1 (centres undefined) | -2 | / | / | / | 1.1
Cn1cc(C(=O)Nc2ccc(F)c(F)c2)cn1 | -4 | 4% | 4 | -9 | 1.0
O=C(/C=C/c1ccc(Br)cc1)NC(=O)c1ccccc1O | -3 | 5% | 16 | / | /
O=C(c1ccccc1)c1cc2cc(Cl)ccc2[nH]1 | ? | / | / | / | -0.1
O=C1CCN(Cc2ccccc2)CCN1CCO | 3 | -1% | / | / | -0.2
COc1ccc(N2CCC(CNC(=S)Nc3cc(C)ccc3C)C2)cc1 (centres undefined) | 6 | ? | / | / | 5.5
O=C1N/C(=C/c2ccc(N3CCOCC3)o2)C(=O)N1c1ccccc1 | 9 | -1% | -1 | -27 | /
Cc1ccccc1NC(=O)C(=O)Nc1ccccc1C | -5 | 4% | / | / | -1.1
O=C(NNc1cc(Br)c(O)c(Br)c1)c1ccccc1 | 57 | 3% | -12 | / | 2.1
COC(=O)[C@H](CCSC)NC(=O)[C@@H](Cc1cnc[nH]1)NC(=O)OCc1ccccc1 | 5 | / | / | / | -2.5
CCCn1c(C)cc(C(=O)CSc2nc3nc(C)cc(C)n3n2)c1C | 0 | 7% | 3 | -20 | -0.1
Cc1cc(C)c(OCC(=O)OCC(=O)N2CCCc3ccccc32)c(C)c1 | 55 | / | / | / | -0.4

Some of the compounds tested; rates above refer to the full screens.
